Assay outcomes (PubChem)
Calb FLC: C. albicans growth modulation with fluconazole; C. albicans CaCi-2 (fluconazole-resistant clinical isolate) + fluconazole, Alamar Blue growth, 48 h; growth inhibition, % (concentration not given with the values); hit rate 0.57% among 300,000;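 active means most replicates above 75%; inconclusive means exactly half above 75%; inactive means most below 75%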;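 further: all wells also contain fluconazole at 8 µg/ml as a sub-toxic cotreatment; 0% = median of DMSO wells and 100% = median of geldanamycin control wells; wells of about 8 µL received 7.5 nL stock; the first replicate is given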
Vif TR-FRET: inhibitors of Vif binding to APOBEC3G peptide, primary screen, biochemical, TR-FRET, GST-Vif 1-94, biotin-A3G peptide, dose response retest (AID 1117319). TR-FRET GST-Vif / biotin-A3G peptide binding; higher % means a stronger effect; test concentration not given here; strong numbers were not always called active. inhibition, %; hits with a dose series show IC50 in µM. hit rate 0.57% among 260,000;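 active means above the screen mean plus three standard deviations and confirmed in dose response; inconclusive means results disagree or hit not tested in dose response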;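 further: Vif residues 1-94 fused to GST binding biotinylated APOBEC3G peptide 110-148; 0% = full assay without inhibitor and 100% = GST in place of GST-Vif; retest series ran down from 100 µM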
ALR inh: human ALR oxidase inhibition via reduced H2O2; P55789; purified ALR, DTT oxidation, H2O2 HRP-luminol luminescence; inhibition, % (test concentration not listed); hit rate 3.8% among 290,000;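 active means mean and each replicate at 75% or more; inconclusive means only one of the two met; inactive means neither met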;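 further: stock transfer was 7.5 nL into about 7.5 µL; 0% = neutral wells and 100% = wells with inactivated enzyme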
Target sequence (P55789 whole entry, looked up): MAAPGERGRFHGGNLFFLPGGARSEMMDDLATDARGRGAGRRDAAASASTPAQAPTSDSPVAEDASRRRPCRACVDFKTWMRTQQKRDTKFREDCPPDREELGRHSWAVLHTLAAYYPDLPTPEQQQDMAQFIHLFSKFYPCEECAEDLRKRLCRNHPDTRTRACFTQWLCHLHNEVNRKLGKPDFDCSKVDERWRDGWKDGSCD
LANA-H2B inh: blocks KSHV LANA binding to histone H2A/H2B; Q9QR71; cell-free LANA-H2A/H2B peptide, fluorescence polarization; inhibition, % (no concentration beside the values); hit rate 0.6% among 320,000; in the data active means inhibition mostly above about 10%, no sharp cut-off; inactive means mostly below about 6.7%;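 further: stock transfer was 7.5 nL into about 10 µL; 0% = median of vehicle wells and 100% = median of positive control wells; one replicate is shown; the record names a cut of 25% in any replicate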
Beta2AR agonist: agonists of human beta-2 adrenergic receptor inducing internalization. P07550. Am2.2-beta2AR cells, FAP receptor internalization, flow cytometry; reference of the scale not given here. response, % (test concentration not listed). hit rate 0.43% among 340,000. AID 504454;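 active means response above a set limit, near 3 SD of response in nonfluorescent compounds, cut at about 42% in these data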;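 further: stock transfer was 100 nL into about 11 µL; a reference agonist was the positive control; negative values mostly stem from fluorescent compounds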
Target sequence (P07550 whole entry, looked up): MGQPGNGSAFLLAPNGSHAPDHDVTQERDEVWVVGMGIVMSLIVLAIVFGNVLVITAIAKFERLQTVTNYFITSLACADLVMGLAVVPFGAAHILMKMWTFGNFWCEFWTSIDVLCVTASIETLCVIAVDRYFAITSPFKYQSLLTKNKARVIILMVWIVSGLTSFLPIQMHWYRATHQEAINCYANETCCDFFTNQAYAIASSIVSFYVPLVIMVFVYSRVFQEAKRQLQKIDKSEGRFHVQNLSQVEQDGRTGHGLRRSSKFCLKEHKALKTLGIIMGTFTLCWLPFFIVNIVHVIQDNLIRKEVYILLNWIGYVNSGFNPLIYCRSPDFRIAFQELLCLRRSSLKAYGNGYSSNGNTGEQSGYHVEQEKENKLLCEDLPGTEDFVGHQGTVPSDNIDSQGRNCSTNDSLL
RanGTP-Imp inh: inhibitors of RanGTP-importin-beta interaction, primary screen, biochemical, FRET, CFP-Ran, YFP-importin-beta, homogeneous; cell-free CFP-Ran/YFP-importin-beta FRET ratio; inhibition, % (test concentration not listed); hit rate 1.1% among 300,000;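 active means most replicates above 15%; inconclusive means exactly half above 15%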;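 further: 0% = DMSO wells and 100% = Ran loaded with GDP instead of GTP; wells of about 40 µL received 100 nL stock; the first replicate is given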
HNF4A DNA FP: change in binding of human HNF4 alpha to DNA | P41235 | HNF4a-FITC DNA binding, fluorescence polarization, 1 h | activity change, % at 10 µM | hit rate 0.3% among 360,000; in the data active means activity change above about 30%, passing the limit was not always enough;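 further: controls were the assay level and a saturating level of protein; the project sought stronger binding though the title names inhibitors; some compounds called inactive have numbers as strong as hits; positive values seem to mean higher polarization but the record does not say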
Target sequence (P41235 whole entry, looked up): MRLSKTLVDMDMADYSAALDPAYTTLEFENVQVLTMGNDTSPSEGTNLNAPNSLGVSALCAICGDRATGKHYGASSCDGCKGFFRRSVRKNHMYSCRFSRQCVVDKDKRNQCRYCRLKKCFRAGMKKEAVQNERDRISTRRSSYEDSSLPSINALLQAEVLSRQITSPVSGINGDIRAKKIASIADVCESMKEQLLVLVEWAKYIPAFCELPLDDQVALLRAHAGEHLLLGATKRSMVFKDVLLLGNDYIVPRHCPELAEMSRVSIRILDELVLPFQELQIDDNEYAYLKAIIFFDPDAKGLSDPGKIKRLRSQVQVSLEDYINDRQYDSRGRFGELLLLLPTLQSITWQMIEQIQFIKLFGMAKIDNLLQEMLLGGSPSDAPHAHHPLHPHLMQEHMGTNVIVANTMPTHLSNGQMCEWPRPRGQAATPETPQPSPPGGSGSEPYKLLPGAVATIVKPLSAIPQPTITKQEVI
Starred values were filed as active, the others as inactive; i = inactive; ? = inconclusive; . = not tested or not shown; & = joins results of further samples. This is a random part of the collection; 6.3% or so of the library scored in one or more.

SMILES	Calb FLC	Vif TR-FRET	ALR inh	LANA-H2B inh	Beta2AR agonist	RanGTP-Imp inh	HNF4A DNA FP
COc1ccc(CCNC(=O)CC2C(=O)NCCN2CC(C)(C)C)cc1 (stereo not given)	-8	?	2	-0.9	1	-0.5	2.4
O=C(NCCN1CCOCC1)c1cc(Sc2cccc(Cl)c2)nc2ccccc12	1	-12%	-12	0.4	-8	5.5	-0.5
CCOc1ccc(S(=O)(=O)Nc2ccc(C(=O)N3CC(C)OC(C)C3)cc2)cc1 (stereo not given)	-8	-4%	1	-5.1	-10	4.7	-3.8
COc1ccc(OC)c(NC(=O)COc2coc(CN3CCc4ccccc43)cc2=O)c1	-4	4%	2	-1.4	-1	0.1	-4.1
C=CCn1c(SCc2ccc(C#N)cc2)nnc1-c1ccccc1	10	6%	-3	0.7	2	-1.1	-0.1
CCc1nnc(NC(=O)CSc2nnc(-c3ccccc3O)o2)s1	35	.	5	3.1	-2	?	8.3
CC(C)(C)c1ccc(-c2cc(C(=O)NNC(=O)Nc3ccccc3)c3ccccc3n2)cc1	-5	1%	-12	-1.4	43*	-2.7	2.8
O=C(NCc1ccco1)c1nc2ncccn2n1	8	-7%	-2	-2.5	0	-0.3	1.7
COc1ccc(Cc2nnc(SCC(=O)Nc3ccc(C)c(C)c3)o2)cc1OC	-2	.	-3	-1.5	-1	-0.1	0.9
CN1CCN(c2nc3ccccn3c(=O)c2C=C(C#N)C#N)CC1	18	-5%	2	1.7	-4	?	-3.5
CCC(=O)Nc1ccc2c(c1)nc(CCN1CCCCC1)n2C	-6	-16%	-26	3.1	-5	0.5	-0.7
CC(C)(C)C(=O)COC(=O)c1ccc(N)c([N+](=O)[O-])c1	5	-1%	9	-5.4	-8	5.3	-1.2
COc1ccccc1N1CCN(C(=O)c2cc3c(=O)n(C)c4ccccc4c3n2C)CC1	8	21%&-1%	-16	-2.4	5	-0.2	2.1
CC(C)(CNC(=O)Cc1ccc(Br)cc1)N1CCOCC1	-5	.	-4	-1.8	11	5.1	-1.4
COc1ccc(NC(=O)c2ccccc2)cc1	.	.	1	-1.1	9	.	3.1
CC(C)C(NC(=O)c1cccs1)C(=O)NC1=NCCS1 (stereo not given)	0	2%	-25	-0.7	3	2.9	0.8
Cc1ccc(-n2nc3c(c2NC(=O)c2c(F)cccc2Cl)CS(=O)(=O)C3)cc1C	-6	.	-11	-4.0	-2	2.2	0.7
O=C(O)c1ccc(/C=N/Nc2cccc(C(F)(F)F)c2)cc1	-2	3%	49	-7.9	3	-0.9	-1.9
O=C(CC(=O)Nc1ccccc1C(F)(F)F)Nc1ccccc1C(F)(F)F	-5	2%	-11	2.5	3	-3.7	-1.1
O=C(O)C1=C[C@@H](c2ccc3c(c2)OCO3)C[C@@H](OCCCCO)O1	-8	29%	-1	0.2	0	-0.7	5.6
CCN(CC)N=Nc1ccc(C(=O)O)cc1	-17	2%	-31	-6.6	2	-2.5	-2.1
CC[N+](C)(C)CC/C=C1/c2ccccc2Sc2ccc(Cl)cc21	20	.	-16	5.0	-3	13	-1.2
O=C(c1cc2ccccc2o1)N1CCN(S(=O)(=O)c2ccccc2)CC1	.	7%	.	.	3	.	-1.4
Cc1ccc(S(=O)(=O)N(C)C)cc1NC(=S)Nc1cccc2ccccc12	-1	.	-31	2.7	-6	1.2	-3.5
COc1cc(/C=C2/SC(=S)N(CC(=O)NC(C)(C)C)C2=O)cc(OC)c1OC	-16	-4%	1	0.4	17	-4.0	7.6

Given in CSV form: part of the list above
molecule,Calb FLC,Vif TR-FRET,ALR inh,LANA-H2B inh,Beta2AR agonist,RanGTP-Imp inh,HNF4A DNA FP
CC(C)C(NC(=O)c1cccs1)C(=O)NC1=NCCS1 (stereo not given),0,2%,-25,-0.7,3,2.9,0.8
COc1cc(/C=C2/SC(=S)N(CC(=O)NC(C)(C)C)C2=O)cc(OC)c1OC,-16,-4%,1,0.4,17,-4.0,7.6

(listing goes on)
SMILES	Calb FLC	Vif TR-FRET	ALR inh	LANA-H2B inh	Beta2AR agonist	RanGTP-Imp inh	HNF4A DNA FP
CCCCCn1c(CN2CCN(CCO)CC2)nc2c1c(=O)n(C)c(=O)n2C	-2	2%	-20	-1.0	-6	-0.2	-1.2
O=C(CN(c1ccc(Cl)c(C(F)(F)F)c1)S(=O)(=O)c1ccccc1)N/N=C/c1cccc2c1OCCO2	1	1%	1	1.9	2	1.7	1.1
CCN(C(C)=O)c1nc(CCl)cs1	-12	4%	.	1.6	-2	0.8	-4.1
Cc1cc(C(=O)NNC(=S)NCc2ccccc2)cs1	5	3%	3	-1.0	28	3.1	-3.7
COC(=O)c1sc(SC)c(-c2ccon2)c1C	-5	-30%	-1	-2.4	2	1.5	-1.5
CC1(C)CC(=O)C2=C(C1)N(CCN1CCOCC1)C1=C(C(=O)CC(C)(C)C1)C2c1cccc(F)c1	-5	0%	11	1.4	-1	130*	0.5
CCCCC1CCCOC(C(=O)NCCNCCO)(C(F)(F)F)C1 (stereo not given)	-7	.	-8	-0.1	18	3.2	-2.1
CS(=O)(=O)N1CCC(C(=O)NCC2CCCO2)CC1 (stereo not given)	-15	15%	0	-0.4	-3	-2.9	-0.6
Cc1ccc(-c2nc(C=Nc3cccc(C)c3)c(O)o2)cc1	-16	1%	-4	0.6	10	-1.9	0.1
COc1ccc(CC(=O)NNC(=S)NC(=O)c2cccnc2)cc1	-11	.	5	-5.3	1	-2.3	3.9
COc1cccc(/C=N/NC(=O)CN(CCc2ccccc2)S(=O)(=O)c2ccc(NC(C)=O)cc2)c1	1	-3%	-3	2.2	-7	-2.5	-1.7
CC(=O)N1N=C(c2ccc(Cl)cc2)OC1(C)C	-10	.	-11	-2.4	-9	0.3	-0.2
O=C(c1cccc(NC2=NC3CS(=O)(=O)CC3S2)c1)N1CCN(c2ccc(F)cc2)CC1 (stereo not given)	0	.	?	-2.2	-15	3.2	0.1
Fc1ccc(OCc2nn3c(Cn4nnc5ccccc54)nnc3s2)cc1	-31	-5%	-4	1.9	0	-2.2	-0.6
CCN(CC)S(=O)(=O)c1cc(NC(=O)CN2CCN(c3ccccn3)CC2)ccc1C	0	.	-1	0.4	-16	-3.8	-7.8
O=S(=O)(NC1CCSc2ccccc21)c1ccccc1 (stereo not given)	-7	.	0	6.7	2	-2.6	4.1
Cc1ccccc1OCC(=O)OCC(=O)Nc1ccc2c(c1)OCO2	.	.	-4	1.0	7	.	1.2
CC1CCCN(CC(=O)Nc2ccc(S(=O)(=O)N3CCCCC3)cc2)C1 (stereo not given)	-3	8%	-17	-0.9	-1	-2.0	1.8
O=c1[nH]c(=O)c2nc(-c3ccc(Cl)cc3)cnc2[nH]1	5	-5%	-1	0.7	-12	94*	1.5
CC1CCCCC1NC(=O)COC(=O)CCC(=O)c1cccs1 (stereo not given)	.	.	0	1.0	3	.	-0.7
CCOC(=O)c1ccc(NC(=O)C2CC3CCC2C3)cc1 (stereo not given)	-1	.	-2	-0.4	6	0.3	0.7
COC(=O)c1cccc(NC(=O)CC2C(=O)NCCN2C(=O)c2ccc(F)cc2F)c1 (stereo not given)	-9	11%	1	0.2	2	-4.0	-2.6
FC(F)(F)c1ccc(Oc2ccc3ccccc3c2Br)nc1	12	.	-9	-1.1	5	-0.8	3.5
CC(=O)Nc1ccc(NC(=O)c2cc(-c3cc(C)c(C)cc3O)n[nH]2)cc1	-6	-7%	15	-2.3	7	2.1	-0.6
COc1ccc(NC(=S)Nc2ccc(C)c(S(=O)(=O)N3CCCCC3)c2)cc1	0	.	-3	-3.7	.	4.1	.
Following part
SMILES	Calb FLC	Vif TR-FRET	ALR inh	LANA-H2B inh	Beta2AR agonist	RanGTP-Imp inh	HNF4A DNA FP
COc1ccc2[nH]cc(CCNC(=O)COc3ccc4ccc(=O)oc4c3)c2c1	-1	.	-13	-0.6	-6	-3.2	-0.3
C[C@]12C(=O)N(c3cccc(Cl)c3)C(=O)N1[C@@H]1c3ccccc3OC[C@@H]1[C@H]2c1ccccc1	.	.	0	-2.3	2	.	-0.3
CCN(C(=O)CSc1nnc(C)n1Cc1ccccc1)C1CCS(=O)(=O)C1 (stereo not given)	20	.	2	3.7	7	?	-5.0
CCOc1ccc(-c2noc(CCC(=O)NC3CCCCC3)n2)cc1OC	5	-11%	1	4.9	-5	0.9	3.1
COC(=O)c1c(NC(=O)C2CC=CCC2C(=O)O)sc2c1CCCCC2 (stereo not given)	30	.	6	-1.6	6	1.9	-7.5
CCCCCCC1CC(/C(C)=N\NC(N)=O)OC1=O (stereo not given)	13	-6%	-2	4.6	-15	0.5	-1.9
COc1ccc(OCC(=O)N/N=C(\C)CC(=O)Nc2ccc(NC(C)=O)cc2)cc1	-7	-3%	-7	0.6	-3	4.0	0.6
CC1CCCC(NC(=O)Cn2cc([N+](=O)[O-])ccc2=O)C1C (stereo not given)	.	.	-14	6.8	-6	.	1.6
COc1cc(O)ccc1/C=N/NC(=O)c1ccc([N+](=O)[O-])cc1	-7	-3%	-4	-0.2	-2	1.2	-1.5
c1ccc(NC2=Nc3ccccc3CC2)cc1	-1	-3%	-9	0.0	-8	-3.4	-0.3
CC1CCCN(CCCN2C(=O)C3C(C(=O)Nc4ccc(Cl)cc4)C4C=CC3(O4)C2C(=O)NC2CCCCC2)C1 (stereo not given)	-8	.	2	1.8	0	-4.5	-2.4
CC12CCC(C(=O)NCc3ccccc3)(OC1=O)C2(C)C (stereo not given)	-2	0%	-6	1.8	1	0.4	-1.2
CCC1CCC2(CC1)NC(CO)(CO)CO2 (stereo not given)	0	31%	-2	8.2	-2	-1.6	1.0
Cc1ccc2nc(SCC(=O)NCc3ccco3)c(C#N)cc2c1	-15	-6%	48	-2.6	-1	2.6	2.3
CCc1nnc(NC(=O)C2CCCN2C(=O)Nc2ccc(C)cc2)s1 (stereo not given)	-1	.	-2	-3.3	2	25	4.3
C=CCn1c(-c2ccc(Cl)cc2)cnc1SC(C)C(=O)NC(N)=O (stereo not given)	8	-19%	11	6.2	0	22	-1.8
NC(=O)c1cc([N+](=O)[O-])ccc1NCc1ccc(N)cc1	.	.	-9	-4.4	6	.	3.6
C/C(=N/NC(=S)Nc1cccc(C)c1)c1cccc([N+](=O)[O-])c1	26	10%	-3	1.5	-8	-2.5	5.3
O=C(CNC(=O)C1COc2ccccc2O1)Nc1ccc(F)c(F)c1 (stereo not given)	.	-7%	-2	3.8	1	.	6.9
O=c1n(S(=O)(=O)c2cccc3cccnc23)c2ccccc2n1S(=O)(=O)c1cccc2cccnc12	-13	15%	-6	5.7	11	1.4	0.8
CC(=O)Nc1ccc(NC2=CC(=O)CC(C)(C)C2)cc1	1	7%	-13	-7.4	-13	50*	-0.7
N#CCC(=O)NC1CCC(CC2CCC(NC(=O)CC#N)CC2)CC1 (stereo not given)	2	.	1	-3.2	0	3.0	-3.1
COc1ccc(NC(=O)CC2C(=O)N(C)C(=S)N2Cc2ccncc2)cc1 (stereo not given)	-15	.	-4	i	-9	-0.1	0.1
O=C(NCC1CC1)C1(S(=O)(=O)c2ccccc2)CC=CC1	4	.	1	-10	-2	2.3	-2.7
Cc1ccc(NC(=O)c2cc(S(=O)(=O)N3CCc4ccccc43)cn2C)cc1	4	.	19	-0.1	0	?	-0.8
O=C(Nc1ccnn1C1CCN(Cc2ccc(O)c(Cl)c2)CC1)C1CCCC1	-2	7%	27	6.1	5	2.1	1.2
CC(C)n1c(C(F)(F)F)nc2cc(C(=O)N3CCC(O)CC3)ccc21	1	-1%	-2	-1.2	4	3.3	2.5
Cc1cc(NC(=O)CCC(=O)N(Cc2ccccc2)C(C(=O)NC2CCCC2)c2ccc(C)o2)no1 (stereo not given)	-5	.	-22	2.5	14	-0.1	3.5
CC(CCc1ccccc1)NC(=O)c1nnc(Cc2ccc(Cl)cc2)o1 (stereo not given)	-19	-1%	12	-0.6	-7	0.5	2.3
